Assay outcomes (PubChem)
CtBP-E1A blk – inhibitors of CtBP/E1A interaction | 0.49% of 340,000 active | activity change, % (concentration not given with the values) | AlphaScreen GST-E1A/His-CtBP binding, 1536-well; active compounds read low; control for the full effect not named in the record; in the data active means activity change below about -65%; inconclusive means about -30% to -65%; inactive means above about -30%; further: on the % scale 0 is the no-effect control and ±100 the full control effect
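GST-E1A and His-tagged CtBP (125 nM each as 5X stock) were preincubated with pin-transferred compound for 2 h at 37 °C in the dark, then glutathione donor and nickel acceptor beads were added for 1 h before AlphaScreen reading.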
gsp agonist – activates gsp, the McCune-Albright syndrome mutation. 0.13% of 340,000 active. gsp mutant cells, cAMP HTRF, 30 min; control for the full effect not named in the record. Potency, µM (doses to about 76.9 µM), for inactives: at the highest dose activation (cAMP increase), most hits filed as activators. AID 624287; active = well fitted activation curve with a large enough effect; inconclusive = small, poorly fitted or top-dose-only effect, or another doubt; inactive = no such curve, though single readings can be large or run the other way; cell line not stated here;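 further: phosphodiesterase inhibitor Ro 20-1724 added with compounds to block cAMP breakdown; potency means the concentration at half of the fitted maximal effect; nearly all actives have a fitted effect of over 60% in size; about a fifth of the inactives were tested at one dose only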
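Cells stably selected in G418 were plated at 2000/well, grown 16-24 hr, then given compounds in DMSO with the PDE inhibitor […] (300 uM solution added) for 30 min at 37C; cAMP was read by HTRF.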
Sfp inh – Sfp phosphopantetheinyl transferase inhibition. Biochemical Sfp PPTase activity, qHTS. Potency, µM, inactives show max response, negative = inhibition, hits mostly inhibitors. 3.5% of 310,000 active. Q9F4F7; active means well fitted inhibition curve with a large enough effect; inconclusive means small, poorly fitted or top-dose-only effect, or another doubt; inactive means no such curve, though single readings can be large or run the other way;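 further: the enzyme is Sfp with the accession as filed and its product quenches rhodamine fluorescence; potency means the concentration at half of the fitted maximal effect; 0% = enzyme reaction without inhibitor and -100% = no enzyme wells; top concentration of the series not given in the record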
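Fluorescence-quenching assay: 15 nM Sfp-PPTase preincubated 15 min at room temperature with compound, then 5 uM rhodamine-CoA and 12.5 uM BHQ-2-labelled YbbR peptide added. Fluorescence (ex 525/em 598 nm) read at start and after 30 min; difference gives rate.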
gsp antag – antagonizes gsp, the McCune-Albright syndrome mutation | AID 624288 | 0.4% of 340,000 active | Potency, µM (doses to about 76.9 µM), without a hit: top-dose activity change, negative = inhibition, most hits filed as inhibitors | gsp-mutant cells, cAMP HTRF, 30 min; control for the full effect not named in the record; active = falling curve of any shape with a large fitted effect; inconclusive = falling curve, mostly with a smaller effect; inactive = flat or rising curve; cell line not stated here;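 further: intracellular cAMP measured with PDE inhibitor Ro 20-1724 present during compound exposure; potency means the concentration at half of the fitted maximal effect; on the % scale 0 is the no-effect control and ±100 the full control effect; nearly all actives have a fitted effect of over 65% in size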
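HTRF cAMP read-out (cAMP-d2 plus anti-cAMP antibody-K in lysis buffer, 30 min RT). Before lysis, cells are exposed to compounds with […] for 30 min at 37C in DPBS containing Ca/Mg, BSA and Tween 20.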
TRPV1 potentiator – enhances activation of the human vanilloid receptor TRPV1; Q8NER1; TRPV1-expressing cells, Fluo-8 calcium influx, capsaicin EC20 potentiation; host cell line not named in the record; control for the full effect not named in the record; potentiation, % at 8.33 µM; 0.02% of 320,000 active; AID 540277; active means potentiation above 80%; inconclusive means 30% to 80%; inactive means below 30%; further: 0% is about no effect
Target sequence (Q8NER1 whole entry, looked up): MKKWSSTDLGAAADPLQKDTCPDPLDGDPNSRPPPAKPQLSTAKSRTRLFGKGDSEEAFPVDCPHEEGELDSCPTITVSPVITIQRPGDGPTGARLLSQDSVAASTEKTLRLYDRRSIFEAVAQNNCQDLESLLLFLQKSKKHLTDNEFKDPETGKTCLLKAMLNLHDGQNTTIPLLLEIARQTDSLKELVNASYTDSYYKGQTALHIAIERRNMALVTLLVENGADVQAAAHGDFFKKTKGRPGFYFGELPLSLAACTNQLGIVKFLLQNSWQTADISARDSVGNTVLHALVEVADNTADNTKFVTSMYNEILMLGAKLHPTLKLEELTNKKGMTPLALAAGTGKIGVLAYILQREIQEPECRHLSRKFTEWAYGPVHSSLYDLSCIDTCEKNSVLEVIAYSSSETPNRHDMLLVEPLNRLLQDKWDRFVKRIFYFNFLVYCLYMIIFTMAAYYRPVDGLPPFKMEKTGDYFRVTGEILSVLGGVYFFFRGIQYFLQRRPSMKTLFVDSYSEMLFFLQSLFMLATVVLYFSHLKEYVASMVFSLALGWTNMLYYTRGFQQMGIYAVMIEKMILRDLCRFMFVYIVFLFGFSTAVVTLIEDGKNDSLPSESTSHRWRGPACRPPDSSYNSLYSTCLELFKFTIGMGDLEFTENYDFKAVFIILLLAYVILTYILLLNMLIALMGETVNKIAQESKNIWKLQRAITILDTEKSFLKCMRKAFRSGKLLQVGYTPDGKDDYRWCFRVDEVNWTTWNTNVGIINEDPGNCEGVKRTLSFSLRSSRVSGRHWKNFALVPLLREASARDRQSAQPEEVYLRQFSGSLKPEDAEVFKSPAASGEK
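Fluo-8 calcium influx in TRPV1-expressing cells, kinetic read (ex 480/em 520 nm). Compound added and read 3 min for agonist activity, followed by capsaicin at EC20 final and 2 min further read for enhancement.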
ClpP mod – qHTS Assay for Activators of ClpP. purified B. subtilis ClpP, FRET peptide cleavage, 20 min. Potency, µM (doses to about 57.5 µM), without a hit: top-dose activity change, negative = active. 1.9% of 340,000 active. ATP-dependent Clp protease proteolytic subunit (Bacillus subtilis (strain 168)), P80244. AID 651965, 2013; active = well fitted falling curve with a large enough effect; inconclusive = small, poorly fitted or top-dose-only effect; inactive = no such curve, though single readings can be large or run the other way; further: potency means the concentration at half of the fitted maximal effect; the source files actives as falling curves though it sought activators and does not explain the sign; nearly all actives have a fitted effect of over 65% in size; many hits overshoot -100%
Target sequence (P80244 whole entry, looked up): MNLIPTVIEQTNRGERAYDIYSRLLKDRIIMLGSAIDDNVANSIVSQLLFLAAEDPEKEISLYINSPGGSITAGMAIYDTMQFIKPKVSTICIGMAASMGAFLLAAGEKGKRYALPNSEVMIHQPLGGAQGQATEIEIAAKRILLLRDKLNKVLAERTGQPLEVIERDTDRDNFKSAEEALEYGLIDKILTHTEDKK
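ClpP 10 microg/mL final, pH 8 Tris/KCl buffer with BSA, glycerol, Tween-20; compound pinned in; FRET-FV substrate; RT 20 min; Ex320/Em430; ΔFRET vs ADEP 5.8 microM, DMSO, no enzyme.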
Menin-MLL FL inh – menin-MLL binding inhibition, fluorescein peptide; Fluorescence polarization, fluorescein-MLL peptide displacement from menin; FP activity change, % at 61.4 µM; 290,000 tested, under 10 active; AID 1766; inconclusive = falling polarisation curve, or a change in total fluorescence; inactive = total fluorescence flat and polarisation flat or rising; no compound was filed as active; the % refers to the polarisation; negative = inhibition;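 further: % of control where 0% means no effect; inhibitors lower the polarisation; unlabelled MLL peptide was the positive control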
Starred values were filed as active, the others as inactive; ? = inconclusive; / = not tested or not shown; & = joins results of further samples; [ ] = another dose, or the depositor's remark.

SMILES	CtBP-E1A blk	gsp agonist	Sfp inh	gsp antag	TRPV1 potentiator	ClpP mod	Menin-MLL FL inh
COc1ccc(CN(C)CC(=O)Nc2c(C)cccc2C)c(OC)c1	-13	20%[15.4 µM]	17%	5%	-22	-2.6%	2.9
Cc1cccc(OCC(O)Cn2c(=N)n(CCN3CCOCC3)c3ccccc32)c1 (centres undefined)	2	-4%	7%	-1%	-2	-0.6%	2.6
O=C(Cn1[nH]c(=O)c2ccccc2c1=O)OCC(=O)c1ccc(F)c(F)c1	/	?	/	1%	/	5.9%	/
O=C(COC(=O)c1n[nH]c2ccccc12)NCCc1ccc(Cl)cc1	/	23%	/	-17%	-2	?	/
Cc1ccc2nc(-c3ccc(NC(=O)CCS(=O)(=O)c4ccccc4)cc3)sc2c1	-5	27%	-4%	-7%	26	/	6.5
CCOC(=O)c1[nH]c(C)c(C(=O)N2CCOCC2)c1C	4	?	15%	9%	2	0.3%	1.9
O=C1CC2(CCN(C(=O)c3ccc([N+](=O)[O-])cc3)CC2)Oc2ccccc21	-4	-28%[15.4 µM]	/	-14%	2	/	/
CCN(C(=O)COC(=O)CCOc1ccc(C(C)(C)C)cc1)c1c(N)n(Cc2ccccc2)c(=O)[nH]c1=O	-12	22%	/	2%	/	0.1%	/
C/C(=N\NC(=O)Cc1ccccc1[N+](=O)[O-])c1cccnc1	3	-9%	21%	-5%	-14	2.0%	/
COc1cccc(NC(=O)COC(=O)CNC(=O)C2CCCCC2)c1	4	?	/	5%	6	1.0%	/
COc1ccc(Nc2c(-c3ccco3)nc3ccc(C)cn23)cc1	3	11%	9%	2%	-12	-27%	-9.9
COc1cccc(CN2CC(C(=O)NCCC3=CCCCC3)CCC2=O)c1 (centres undefined)	1	-14%	2%	9%	-9	0.0%	5.5
O=C(CCn1c(=O)oc2ccccc21)Nc1ccccc1	4	5%	?	9%	-6	1.4%	7.3
CCOC(=O)/C(C#N)=C/c1c(N2CCCCCC2)nc2ccccn2c1=O	/	-8%	-16%	-23%	-5	-2.9%	19
COC(=O)c1ccc(-n2nnnc2SCc2nn[nH]n2)cc1	0	-12%	1%	0%	2	1.5%	3.7
Nc1nc(NCc2ccco2)nc(Nc2cccc(F)c2)c1[N+](=O)[O-]	5	1%[15.4 µM]	3%	17%	8	/	2.2
CCOC(=O)C1(Cc2cccc(OC)c2)CCCN(C(=O)c2cc(CC(C)C)[nH]n2)C1 (centres undefined)	-4	-14%	-2%	0%	-1	-2.7%	/
Cn1c(NC(=O)c2ccccc2NC(=O)C(C)(C)C)nc2ccccc21	13	28%	1%	-19%	-4	-19%	1.8
CC1CCc2nc3ccc(S(=O)(=O)N4CCC(C(=O)NCc5ccccc5Cl)CC4)cc3c(C(=O)O)c2C1 (centres undefined)	-66*	-34%[inhibitor]	12%	-14%	5	-1.9%&-9.7%	2.0
Cc1ccc(CONC(=O)c2cccc(C)c2)cc1	/	9%	/	9%	-18	-0.7%	/
COc1ccc(S(=O)(=O)N2CCSC2C)cc1C (centres undefined)	/	-55%[inhibitor]	7%	-4%	-9	-0.6%	-2.1
CCN(CC)CCOC(=O)c1ccc(N/C=C(/C#N)c2nc(-c3ccc(OC)c(OC)c3)cs2)cc1	-8	?	?	4%	-4	/	10
O=C(O)C1CC=CCC1C(=O)NCc1ccccc1 (centres undefined)	16	6%	12%	-5%	4	0.1%	-1.1
CC1(c2ccccc2)NC(=O)N(CC(=O)Nc2cc3c(cc2Br)OCCO3)C1=O (centres undefined)	-5	8%[15.4 µM]	/	2%	-10	/	/
COC(=O)c1ccc(COC(=O)CNC(=O)c2ccc(-c3ccccc3)cc2)cc1	9	-7%	11%	0%	3	1.4%	6.0

Quoted from the listing.
COc1ccc(S(=O)(=O)N2CCSC2C)cc1C (centres undefined) @ gsp antag: -4%
CCOC(=O)C1(Cc2cccc(OC)c2)CCCN(C(=O)c2cc(CC(C)C)[nH]n2)C1 (centres undefined) @ ClpP mod: -2.7%

Remaining list, next part
SMILES	CtBP-E1A blk	gsp agonist	Sfp inh	gsp antag	TRPV1 potentiator	ClpP mod	Menin-MLL FL inh
CC(C)(C)NC(=O)C(c1ccc(-c2ccccc2)cc1)N(C[C@H]1CC[C@@H]([C@@H]2CC[C@H](CO)O2)O1)C(=O)c1cccc(Cl)c1 (some centres undefined)	-3	/	/	?	/	1.2%	/
CC(C)(C)CN1CCC(n2nccc2NC(=O)c2ccccc2Cl)CC1	1	-19%	20%	-9%	10	1.2%	-3.4
COCCNC(C(=O)Nc1cc(Cl)cc(Cl)c1)c1ccccc1 (centres undefined)	11	0%	-7%	-11%	-17	-0.5%	0.4
COc1ccc(OCCSc2nnc(CC(=O)Nc3cccc(Cl)c3Cl)n2C)cc1	-14	-10%	-18%	?	9	-1.6%	-1.1
COc1ccc(CCNC(=O)C(NC(=O)OCc2ccccc2)C(C)C)cc1OC (centres undefined)	0	-12%[15.4 µM]	20%	1%	-4	-0.9%	4.9
O=C(Cc1cccs1)NCc1cccc(C(F)(F)F)c1	2	-17%	7%	4%	?	/	-0.1
CCc1ccc(C2C(C#N)=C(N)SC(N)=C2C#N)cc1	0	40µM*	?	-19%	20	-2.5%	?
COC1CCCN(C(=O)c2ccc(OC3CCN(CCc4ccccc4)CC3)cc2)C1 (centres undefined)	-15	-12%[15.4 µM]	15%	6%	1	-2.9%	-1.3
CCCn1cc(CN2CCC(n3nccc3NC(=O)CCOc3ccccc3)CC2)c(C)n1	3	?	15%	15%	-3	-0.6%	-0.1
O=C(O)CCNC(=S)Nc1cccc(F)c1	-9	-23%	2%	2%	13	-1.0%	0.7
COc1ccccc1C(=O)N/C(=C\c1cn(S(=O)(=O)N(C)C)c2ccccc12)C(=O)NCCN1CCOCC1	/	-20%	23%	-9%	2	-20%	1.0
c1ccc(-n2nnnc2CN2CCOCC2)cc1	-23	-26%	11%	6%	0	-6.4%	-0.9
CC(C)[C@H](NC(=O)C1CCN(S(=O)(=O)c2ccccc2)CC1)C(=O)NCc1ccc(F)cc1	-1	17%	9%	-4%	17	1.6%	/
CCOC(=O)C1(Cc2ccccc2)CCN(Cc2cccn2-c2cccnc2)CC1	-3	0%	9%	-2%	-17	0.6%	-4.3
O=C(CC1NCCc2ccccc21)Nc1ccccc1Cl (centres undefined)	-21	-16%[15.4 µM]	13%	20%	2	/	1.2
CC(=O)SC1CC(=O)N(c2c(C)cccc2C)C1=O (centres undefined)	-2	21%	3%	7%	-1	/	-0.8
CCOc1ccc(N2C(=O)CC(N(O)c3ccccc3)C2=O)cc1 (centres undefined)	2	5%	-15%	8%	4	0.4%	-6.2
O=C(c1cccc(C(F)(F)F)c1)N1CCN(C2CCCCC2)CC1	-2	?	10%	-1%	7	-0.6%	1.4
COc1cccc(/C=C2\Sc3ccc(C(=O)NCc4cccnc4)cc3N(C)C2=O)c1	-9	-19%[15.4 µM]	-23%	?	-2	/	-3.9
Cc1nnc(NC(=O)CSc2nc3c(c(=O)n2C)SC(C)C3)s1 (centres undefined)	-5	-87%[inhibitor]	-15%	-10%	4	0.7%	0.1
O=C(CCc1ccccc1)Nc1nnc(-c2cccs2)o1	-11	2%	4%	11%	?	5.0%	2.1
CC(C)c1ccccc1NC(=O)COC(=O)CNC(=O)c1ccc(Br)cc1	-14	0%	18%	18%	10	1.5%	2.4
COc1cccc(/C=N/NC(=O)c2cccc([N+](=O)[O-])c2)c1OS(=O)(=O)c1ccccc1	-9	1%	18%	-10%	-15	0.1%	0.0
COc1ccc(/C=C/C(=O)NCCCN2CCCCCC2)cc1	-6	?	1%	-1%	19	-8.5%	-1.6
Oc1ccccc1-c1ccn[nH]1	4	/	/	2%	/	-4.7%	/
CCc1ccc(NC(=O)CSc2nnc(-c3ccccn3)n2C)cc1	0	15%	14%	-2%	2	1.8%	0.3
Cc1sc2ncnc(Sc3nnc4sc5ccccc5n34)c2c1C	/	/	8%	/	-8	/	2.9

Shown as comma-separated lines: entries from further up.
Molecule,CtBP-E1A blk,gsp agonist,Sfp inh,gsp antag,TRPV1 potentiator,ClpP mod,Menin-MLL FL inh
Cc1nnc(NC(=O)CSc2nc3c(c(=O)n2C)SC(C)C3)s1 (centres undefined),-5,-87%[inhibitor],-15%,-10%,4,0.7%,0.1
O=C(O)CCNC(=S)Nc1cccc(F)c1,-9,-23%,2%,2%,13,-1.0%,0.7

7 entries already listed, sorted by their value in gsp agonist, smallest number first.
| structure | CtBP-E1A blk | gsp agonist | Sfp inh | gsp antag | Menin-MLL FL inh |
| --- | --- | --- | --- | --- | --- |
| COc1ccccc1C(=O)N/C(=C\c1cn(S(=O)(=O)N(C)C)c2ccccc12)C(=O)NCCN1CCOCC1 | / | -20% | 23% | -9% | 1.0 |
| COC(=O)c1ccc(-n2nnnc2SCc2nn[nH]n2)cc1 | 0 | -12% | 1% | 0% | 3.7 |
| COc1ccc(OCCSc2nnc(CC(=O)Nc3cccc(Cl)c3Cl)n2C)cc1 | -14 | -10% | -18% | ? | -1.1 |
| COCCNC(C(=O)Nc1cc(Cl)cc(Cl)c1)c1ccccc1 (centres undefined) | 11 | 0% | -7% | -11% | 0.4 |
| CCc1ccc(NC(=O)CSc2nnc(-c3ccccn3)n2C)cc1 | 0 | 15% | 14% | -2% | 0.3 |
| CC(=O)SC1CC(=O)N(c2c(C)cccc2C)C1=O (centres undefined) | -2 | 21% | 3% | 7% | -0.8 |
| O=C(COC(=O)c1n[nH]c2ccccc12)NCCc1ccc(Cl)cc1 | / | 23% | / | -17% | / |
